Cruzain inh Det: blocks cruzain activity in presence of Triton detergent | P25779 | purified cruzain, Z-FR-AMC fluorescence, 0.01% Triton | Potency, µM, for the others: max response, negative = inhibition, hits mostly inhibitors | 200,000 compounds, 0.43% hits | AID 1478;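 also: plate controls were neutral wells for no effect and buffer without enzyme for full effect; nearly all actives have a fitted effect of over 40% in size; top concentration of the series not given in the record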
Target sequence (P25779 123-467 limits assumed): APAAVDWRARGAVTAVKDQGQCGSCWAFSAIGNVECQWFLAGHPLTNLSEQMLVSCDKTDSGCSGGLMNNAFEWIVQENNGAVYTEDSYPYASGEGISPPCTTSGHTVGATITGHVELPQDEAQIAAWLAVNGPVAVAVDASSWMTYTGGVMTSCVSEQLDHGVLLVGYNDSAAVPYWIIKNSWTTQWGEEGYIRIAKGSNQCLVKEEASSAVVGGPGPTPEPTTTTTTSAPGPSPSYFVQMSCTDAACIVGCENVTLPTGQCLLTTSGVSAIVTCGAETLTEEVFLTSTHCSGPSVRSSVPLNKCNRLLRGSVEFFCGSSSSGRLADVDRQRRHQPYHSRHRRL
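Cruzain (1.5 nM) preincubated 15 min at RT with compound in 100 mM sodium acetate pH 5.5, 5 mM DTT, 0.01% Triton X-100. Reaction started with 2 uM Z-FR-AMC; AMC fluorescence (ex 360/em 450 nm) change over 60 s gave rate.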
RE007 growth inh: less growth of the S. pombe RE007 Vpr strain. AID 651644. Potency, µM (titrated, usually from 92.2 µM), for the others: at the top dose activity change, negative = less growth. S. pombe RE007 Vpr strain, BacTiter-Glo ATP luminescence, 24 h; control for the full effect not named in the record. 360,000 compounds, 0.21% hits; active = well fitted falling curve with a large enough effect; inconclusive = small, poorly fitted or top-dose-only effect; inactive = no such curve, though single readings can be large or run the other way;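 also: % is scaled to controls: 0 for no effect and ±100 for the full control effect; nearly all actives have a fitted effect of over 50% in size; the assay follows cell death caused by Vpr and the record does not say whether a fall means rescue or toxicity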
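Fission yeast RE007 carrying one integrated HIV-1 vpr copy, seeded at OD 0.01 in PMG+AL medium with 23 nL pinned compound. Grown 24 h at 30 degrees; viability read by BacTiter-Glo luminescence after 5 min.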
Cruzain noTriton: cruzain (T. cruzi) inhibition without detergent. P25779. purified cruzain, Z-FR-AMC fluorescence, no detergent. Potency, µM, for the others: max response, negative = inhibition, hits mostly inhibitors. 200,000 compounds, 2.3% hits. AID 1476;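 also: plate controls were enzyme without inhibitor for no effect and buffer without enzyme for full effect; nearly all actives have a fitted effect of over 40% in size; top concentration of the series not given in the record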
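Detergent-free condition (0.00005% Triton X-100) in acetate buffer pH 5.5 with DTT. 1.5 nM enzyme and compound were pre-mixed 15 min, then 2 uM Z-FR-AMC substrate added; reaction progress from fluorescence change between first and third reads (60 s).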
NS1 inh: inhibitors of influenza NS1 protein function. S. cerevisiae slowed by influenza A NS1, growth recovery by OD600. Potency, µM (series often up to 46.1 µM), for inactives: at the highest dose activity, positive = more growth. 270,000 compounds, 0.4% hits; active means well fitted rising curve with a large enough effect; inconclusive means small, poorly fitted or top-dose-only effect; inactive means no such curve, though single readings can be large or run the other way; also: nearly all actives have a fitted effect of over 50% in size
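In this qHTS, NS1 from influenza A is expressed in budding yeast, where it slows growth. Cells are switched from glucose to 2% galactose medium (pH 6.0, -URA), treated with compound, and growth recovery is read at OD600.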
SARS PLP yeast: SARS-CoV PLP inhibition in yeast. 330,000 compounds, 0.19% hits. Potency, µM (doses to about 32.9 µM), without a hit: at the top dose activity, positive = growth rescue. S. cerevisiae expressing SARS-CoV PLpro, growth rescue; control for the full effect not named in the record. AID 485353; active means well fitted rising curve with a large enough effect; inconclusive means small, poorly fitted or top-dose-only effect; inactive means no such curve, though single readings can be large or run the other way; also: 0% is about no effect; nearly all actives have a fitted effect of over 55% in size; growth read by luminescence after 48 h
Marburg entry inh: Marburg virus entry inhibition; Marburg virus pseudotyped entry inhibition, cell reporter; control for the full effect not named in the record; about a third of the inactives were read at about 46 µM; Potency, µM (highest dose often 37.8 µM), for inactives: top-dose activity change, negative = inhibition, most hits filed as inhibitors; 300,000 compounds, 1.8% hits; active = well fitted inhibition curve with a large enough effect; inconclusive = small, poorly fitted or top-dose-only effect, or effect the other way; inactive = flat fitted curve, though single readings scatter; tested in HEK293 cells; about a fifth of its hits are not listed in these tables; also: % is scaled to controls: 0 for no effect and ±100 for the full control effect; luciferase read-out
2A StopGo: FMDV 2A StopGo reporter, luciferase signal | human cells with a luciferase reporter of 2A StopGo recoding; control for the full effect not named in the record | Potency, µM (top dose mostly 57.9 µM), for the others: at the top dose signal change, negative = less light | 410,000 compounds, 1.2% hits | AID 1159524; active = well fitted falling curve with a large enough effect; inconclusive = small, poorly fitted or top-dose-only effect; inactive = no such curve, though single readings can be large or run the other way; tested in HEK293T cells; also: % is scaled to controls: 0 for no effect and ±100 for the full control effect; nearly all actives have a fitted effect of over 45% in size; luciferase light after 4 h
LASV entry inh: blocks Lassa virus binding to or entry into cells. Lassa virus pseudotype entry inhibition, cell reporter; control for the full effect not named in the record. Potency, µM (titrated, usually from 37.9 µM), for inactives: top-dose activity change, negative = inhibition, hits mostly inhibitors. 300,000 compounds, 1.2% hits; active means well fitted inhibition curve with a large enough effect; inconclusive means small, poorly fitted or top-dose-only effect, or effect the other way; inactive means flat fitted curve, though single readings scatter; tested in HEK293 cells; also: % is scaled to controls: 0 for no effect and ±100 for the full control effect; nearly all actives have a fitted effect of over 50% in size; luciferase read-out
The depositor's hits bear a star; ? = inconclusive; / = no result given; [ ] = another dose, or the depositor's remark. Unless noted, calls follow the shape of the dose curve; as a rule, active = well fitted curve in the direction sought with a large enough effect; inconclusive = small, poorly fitted or top-dose-only effect, or another doubt; inactive = no such curve, though single readings can be large; an effect the other way counts as inactive or inconclusive. Potency is read from the fitted curve at half-maximal effect.

Compound,RE007 growth inh,2A StopGo,LASV entry inh,SARS PLP yeast,NS1 inh,Marburg entry inh,Cruzain noTriton,Cruzain inh Det
O=c1c2ccccc2nc2ccc(NCc3ccco3)nn12,30%,-6%,3%,-12%,-4%,-11%,4%,-8.8%
CC(=O)Nc1ccc(C(=O)OCC(=O)/C(C#N)=C(\C)N)cc1,3%,9%,18%,1%,10%,18%[46.1 µM],/,/
COc1ccc2c(c1)C(=O)N(Cc1ccccc1)C(=O)C2(C)C,9%,?,?,-3%,-14%,-11%[46.1 µM],/,/
Cc1ccc(CNC(=O)c2cc(=O)c3cc(C)c(C)cc3o2)cc1,/,-7%,/,/,/,10%[46.1 µM],-14%,-3.0%
O=C(NNC(=O)c1ccc(S(=O)(=O)N2CCOCC2)cc1)c1ccccc1,-20%,12%,/,-2%,8%,9%[46.1 µM],/,/
COc1cc(C(=O)OC2CCOC2=O)c([N+](=O)[O-])cc1OC (stereo not drawn),-17%,-7%,19%[46.1 µM],1%,1%,?,/,/
O=C(c1ccco1)N1CCN(C(c2ccccc2Cl)c2nnnn2CC2CCCO2)CC1 (stereo not drawn),10%,-7%,-17%,30%,-6%,?,14%,5.7%
COc1cc(/C=N/NC(=O)COc2ccc(Cl)cc2)ccc1OS(=O)(=O)c1ccc(C)cc1,-6%,-25%,?,-8%,22%,?,?,-0.1%
O=C(c1ccccc1)C1NC1c1ccccc1 (stereo not drawn),-13%,49%[activator],15%,-1%,-1%,-2%,/,/
Cn1nc(-c2ccccc2)c2cc(C(=O)O)sc21,0%,9%,0%[46.1 µM],0%,/,7%[46.1 µM],/,/
O=C(CSc1n[nH]c(-c2ccccc2F)n1)NCC(=O)Nc1ccc(F)c(F)c1F,-11%,10%,-8%[46.1 µM],0%,/,-11%[46.1 µM],/,/
COc1ccccc1CNC(=S)NC1CCCC1,-5%,-6%,?,23%,-32%,?,2%,1.9%
Cc1ccc(-n2c(SCC(=O)N/N=C/c3c(C)nn(-c4ccccc4)c3C)nc3ccccc3c2=O)cc1,1%,0%,-22%,/,?,?,-6%,-2.8%
COc1ccccc1NC(=O)Nc1cccc(C(=O)O)c1,-10%,1%,-22%[46.1 µM],-1%,/,13%[46.1 µM],/,/
O=C(CN(Cc1ccc(F)cc1)C(=O)CNS(=O)(=O)c1ccccc1)NCc1ccco1,6%,-3%,?,10%,-3%,-18%[46.1 µM],/,/
CCCn1ncc([C@@H]2C[C@H]3CN(Cc4cccc(Cl)c4)C(=O)[C@]34CCCN24)c1C,-10%,-4%,-23%[46.1 µM],0%,-1%,?,/,/
CCOC(=O)c1cc(-c2ccc(C)cc2)n(CC(=O)Nc2ccc(OC)c(Cl)c2)c1C,/,16%,/,/,/,-19%[46.1 µM],9%,-1.2%
Cc1oc(-c2ccc(C(=O)NCCc3ccc(Cl)cc3)cc2)nc1CSc1ccccc1,/,-14%,22%[46.1 µM],/,/,/,-5%,-3.1%
CCc1ccc(N2C(=O)NC(=O)/C(=C/c3cccn3CCOc3ccc(C)cc3)C2=O)cc1,-14%,-21%,2%[46.1 µM],20%,7%,15%[46.1 µM],4%,-4.1%
NC(=O)C1CCN(C(=O)COCc2cc(-c3ccc4c(c3)OCO4)on2)CC1,-10%,5%,/,10%,19%,/,/,/
C=CCNC(=S)N/N=C/c1ccc(-c2ccc(Cl)cc2Cl)o1,-21%,-4%,?,/,/,?,/,/
CCN(CC)S(=O)(=O)c1ccc(NC(=O)c2cc(C(=O)OC)cc([N+](=O)[O-])c2)cc1,2%,-21%,-6%,18%,2%,-3%,12%,-9.6%
O=[N+]([O-])c1ccc(N2CCOCC2)nc1,2%,/,8%,3%,16%,2%,2%,-3.8%
CCCCn1nnnc1SCC(=O)NCc1ccco1,/,-5%,/,/,-4%,-1%,6%,5.5%
Cc1ccccc1CNC(=O)C(=O)NCC(c1ccco1)S(=O)(=O)c1ccccc1 (stereo not drawn),/,-13%,-12%[46.1 µM],/,/,/,-9%,-2.8%
CCOC(=O)C1=C(C)N=C2SCCC(=O)N2C1c1sccc1C (stereo not drawn),6%,-23%,6%,-36%,-74%,-17%,1%,0.0%
Cc1ccc(C2(c3ccccc3)NC(=O)N(CC(=O)NC3CCS(=O)(=O)C3)C2=O)cc1C (stereo not drawn),-10%,-12%,-9%,-5%,/,-3%,/,/
O=C(CCc1ccccc1)NNC(=O)CCc1ccccc1,3%,18%,/,1%,11%,/,/,/
CC(C)(C)Cc1cc(N)on1,13%,-16%,-12%,-29%,7%,-17%,14%,1.8%
CSc1nc(-c2ccc(Cl)cc2Cl)[nH]c(=O)c1C#N,5%,?,6%,-17%,-15%,?,-6%,-4.7%

Following part
Compound,RE007 growth inh,2A StopGo,LASV entry inh,SARS PLP yeast,NS1 inh,Marburg entry inh,Cruzain noTriton,Cruzain inh Det
Cc1cc(NC(=O)CSc2nc3ccccc3n2CC(=O)N2CCC(C)CC2)no1,-1%,-21%,-2%,9%,7%,0%,-16%,-0.5%
Cc1ccc[n+](CC(=O)c2ccc(-c3ccccc3)cc2)c1,-12%,-20%,-7%,-25%,4%,-12%,0%,-2.5%
Cc1cc(C(=O)N(C)CC(=O)Nc2ccc(F)c(F)c2F)no1,-5%,-25%,/,5%,10%,/,/,/
COc1ccccc1NC(=O)Cn1c(=O)n(CCC(=O)NCC2CCCO2)c(=O)c2cc(OC)c(OC)cc21 (stereo not drawn),/,-4%,-2%[46.1 µM],/,/,-4%[46.1 µM],-11%,2.0%
Cc1cc(C)cc(C(=O)N2CCCCC2)c1,-10%,-14%,22%[46.1 µM],/,/,?,/,/
CSc1nnc(COc2ccc(C)cc2)n1N,7%,15%,-22%,?,8%,?,-2%,7.4%
Cn1c(-n2c(-c3ccco3)nc3ccccc3c2=O)nc2ccccc21,10%,22%,-8%,-6%,-5%,-6%,-2%,1.9%
CC(=O)c1cccc(NC(=O)CSC(=O)c2ccccc2)c1,2%,-9%,12%,-27%,-8%,?,-7%,-10%
Cc1nc(N2CCCCC2)c(C#N)c(C)c1[N+](=O)[O-],1%,-28%,0%,0%,/,-8%,/,/
COc1cccc(CNC(=O)CCC(=O)n2ncc3cc(C)ccc32)c1OC,-14%,-18%,/,-1%,-10%,/,/,/
CCN1CCN(CC(=O)Nc2ccc(Cl)c(Cl)c2)C(=O)C1=O,3%,-6%,/,-9%,?,/,5%,-3.5%
COc1ccccc1CN(C)CC(=O)Nc1cccc(S(=O)(=O)N2CCCCC2)c1,-4%,-21%,?,-23%,/,?,/,/
COc1cccc(N2CCN(S(=O)(=O)c3cc4c(cc3C)N(C)CCO4)CC2)c1,-8%,2%,/,-24%,?,/,/,/
O=C(CSc1ccc(Br)cc1)N1CCN(S(=O)(=O)c2ccccc2)CC1,3%,0%,4%,/,8%,-25%,/,/
Cc1cc(C)cc(NC(=O)c2ccc(NC3=NC4CS(=O)(=O)CC4S3)cc2)c1 (stereo not drawn),-7%,7%,/,1%,13%,/,/,/
O=C(c1cc2ccccc2oc1=O)N1CCN(S(=O)(=O)c2ccccc2)CC1,0%,-3%,27%,2%,-2%,10%,/,/
Cc1ccc2c(=O)cc(C(=O)Nc3c(C)n(C)n(-c4ccccc4)c3=O)oc2c1,/,-17%,?,/,/,2%[46.1 µM],-12%,-3.0%
CCCn1c(N)c(N(CCOC)C(=O)CSCC(=O)Nc2cccc(C)c2)c(=O)[nH]c1=O,9%,1%,-11%[46.1 µM],0%,/,-8%,/,/
COc1ccc(C(=O)N2CCOC2CNC(=O)C(=O)NCCc2ccccc2OC)cc1 (stereo not drawn),4%,-23%,-12%,0%,2%,12%,/,/
CCCCNc1nc2ccccc2n1CC(=O)Nc1c(C)cccc1CC,/,-3%,1%,21%,-9%,?,1%,-1.8%
N#C/C(=C/c1ccc(Br)o1)C(N)=O,-1%,-18%,-4%,10%,5%,-7%[46.1 µM],-14%,-11%
COc1ccc2c(CC(=O)N[C@@H](Cc3ccccc3)C(=O)O)cc(=O)oc2c1,15%,-14%,/,2%,-2%,/,/,/
CCCOc1ccc(C(=O)Nc2ccc3oc(-c4cccc(Cl)c4Cl)nc3c2)cc1,/,?,-10%[46.1 µM],/,/,/,8%,-0.3%
Cc1ccc(NCCC#N)cc1C,2%,1%,8%,10%,-6%,6%,-1%,0.8%
CN(c1ccccc1)S(=O)(=O)c1cccc(NC(=O)c2ccc3ncsc3c2)c1,5%,35µM*,?,-2%,1%,?,/,/
Cc1cc(NC(=O)CSc2nc(N)c(NC(=O)c3ccc(F)c(F)c3)c(=O)[nH]2)no1,-7%,-3%,15%,-4%,-4%,?,/,/
COc1cccc(CNC(=O)COC(=O)c2ccc(C(=O)c3ccccc3)cc2)c1,0%,-1%,13%,1%,/,?,/,/
Cc1ccc(NC(=O)c2cc(C)nc3ccccc23)c(Br)c1,-5%,?,-2%,-6%,-24%,-6%,/,/
NC(=O)NC1CCCc2c1[nH]c1ccc(Cl)cc21 (stereo not drawn),1%,-34%,/,7%,-32%,4%,-7%,-11%
Cc1ccc(NC(=O)C(C)SCC(=O)Nc2ccc(F)cc2)cc1S(=O)(=O)N1CCOCC1 (stereo not drawn),-9%,21%,-9%,/,/,7%[46.1 µM],/,/

Following part
Compound,RE007 growth inh,2A StopGo,LASV entry inh,SARS PLP yeast,NS1 inh,Marburg entry inh,Cruzain noTriton,Cruzain inh Det
O=C(C[n+]1ccc(C(=O)NCc2ccccc2)cc1)c1ccc2c(c1)OCCO2,-10%,-10%,8%,1%,10%,10%,/,/
OCC(CO)(CO)n1cnnn1,4%,5%,7%,-2%,4%,17%,-1%,9.2%
CCOC(=O)C1(Cc2cccc(OC)c2)CCCN(C(=O)c2cc(C)on2)C1 (stereo not drawn),1%,37%[activator],1%,-12%,-7%,8%,/,/
O=C(CC1SC(N2CCOCC2)=NC1=O)Nc1ccc(Cl)cc1 (stereo not drawn),-11%,-13%,4%,-1%,/,-18%[46.1 µM],/,/
Cc1cccc(-c2cc3nc4c(c(NCc5ccco5)n3n2)CCCC4)c1,0%,/,?,-41%,-89%,?,-28%,-10%

From PubChem BioAssay
